# NS1 function inh: influenza NS1 inhibition | S. cerevisiae slowed by influenza A NS1, growth recovery by OD600 | actives 0.4% (n = 270,000) | AID 2326 | Potency, µM (series often up to 46.1 µM), for inactives: top-dose activity, positive = more growth; further: actives are rising curves; nearly all actives have a fitted effect of over 50% in size
#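 A cell-based growth assay was used: compounds that relieve NS1-induced slow growth of budding yeast raise OD600. Assay medium was yeast nitrogen base with ammonium sulphate and -URA supplement, pH 6.0, with 2% galactose.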
# Cruzain inh Det: blocks cruzain activity in presence of Triton detergent; P25779; purified cruzain, Z-FR-AMC fluorescence, 0.01% Triton; Potency, µM, for inactives: max response, negative = inhibition, actives largely listed as inhibitors; actives 0.43% (n = 200,000); active means well fitted curve in the direction sought with a large enough effect; inconclusive means small, poorly fitted or top-dose-only effect, or another doubt; inactive means no such curve, though single readings can be large; an effect the other way counts as inactive or inconclusive;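 further: plate controls were neutral wells for no effect and buffer without enzyme for full effect; nearly all actives have a fitted effect of over 40% in size; top concentration of the series not given in the record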
# Target sequence (P25779 123-467 limits assumed): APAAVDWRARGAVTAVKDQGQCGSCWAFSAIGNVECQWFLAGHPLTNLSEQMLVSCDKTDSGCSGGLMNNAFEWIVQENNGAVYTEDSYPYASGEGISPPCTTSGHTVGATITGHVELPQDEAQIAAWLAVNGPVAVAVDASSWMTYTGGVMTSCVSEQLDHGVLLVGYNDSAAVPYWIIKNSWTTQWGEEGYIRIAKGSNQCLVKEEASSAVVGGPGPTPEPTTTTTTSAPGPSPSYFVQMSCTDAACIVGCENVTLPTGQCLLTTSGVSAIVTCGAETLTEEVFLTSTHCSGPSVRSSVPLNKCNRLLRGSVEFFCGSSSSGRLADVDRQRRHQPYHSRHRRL
#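 Enzyme 1.5 nM, Z-FR-AMC 2 uM, NaOAc 100 mM pH 5.5, DTT 5 mM, Triton X-100 0.01%; 15 min RT compound preincubation; kinetic ex360/em450, 60 s delta.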
# LASV entry inh: inhibitors of Lassa virus binding or cell entry; Lassa virus pseudotype entry inhibition, cell reporter; control for the full effect not named in the record; AID 540256; actives 1.2% (n = 300,000); Potency, µM (top dose mostly 37.9 µM), without a hit: at the highest dose activity change, negative = inhibition, hits mostly inhibitors; active means well fitted inhibition curve with a large enough effect; inconclusive means small, poorly fitted or top-dose-only effect, or effect the other way; inactive means flat fitted curve, though single readings scatter; tested in HEK293 cells; further: on the % scale 0 is the no-effect control and ±100 the full control effect; nearly all actives have a fitted effect of over 50% in size; luciferase read-out
# StopGo reporter: FMDV 2A StopGo reporter, luciferase signal; human cells with a luciferase reporter of 2A StopGo recoding; control for the full effect not named in the record; actives 1.2% (n = 410,000); AID 1159524; Potency, µM (series often up to 57.9 µM), inactives show at the highest dose signal change, negative = less light; active = well fitted falling curve with a large enough effect; inconclusive = small, poorly fitted or top-dose-only effect; inactive = no such curve, though single readings can be large or run the other way; tested in HEK293T cells; further: on the % scale 0 is the no-effect control and ±100 the full control effect; nearly all actives have a fitted effect of over 45% in size; luciferase light after 4 h
# RE007 growth inh: less growth of the S. pombe RE007 Vpr strain | S. pombe RE007 Vpr strain, BacTiter-Glo ATP luminescence, 24 h; control for the full effect not named in the record | Potency, µM (doses to about 92.2 µM), for inactives: top-dose activity change, negative = less growth | actives 0.21% (n = 360,000); active = well fitted falling curve with a large enough effect; inconclusive = small, poorly fitted or top-dose-only effect; inactive = no such curve, though single readings can be large or run the other way;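 further: on the % scale 0 is the no-effect control and ±100 the full control effect; nearly all actives have a fitted effect of over 50% in size; the assay follows cell death caused by Vpr and the record does not say whether a fall means rescue or toxicity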
#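 Fission yeast strain RE007, carrying one chromosomally integrated HIV-1 vpr copy, was seeded at OD 0.01 in PMG+AL medium with 23 nL pinned compound. After 24 h at 30 °C and 99% humidity, viability was read by BacTiter-Glo luminescence.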
# Cruzain inh noDet: inhibitors of Trypanosoma cruzi cruzain without detergent. P25779. purified cruzain, Z-FR-AMC fluorescence, no detergent. Potency, µM, for inactives: max response, negative = inhibition, most hits filed as inhibitors. actives 2.3% (n = 200,000). AID 1476; active means well fitted curve in the direction sought with a large enough effect; inconclusive means small, poorly fitted or top-dose-only effect, or another doubt; inactive means no such curve, though single readings can be large; an effect the other way counts as inactive or inconclusive;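 further: plate controls were enzyme without inhibitor for no effect and buffer without enzyme for full effect; nearly all actives have a fitted effect of over 40% in size; top concentration of the series not given in the record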
#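 Detergent-free condition (0.00005% Triton X-100) in acetate buffer pH 5.5 with DTT. 1.5 nM enzyme and compound were pre-mixed 15 min, then 2 uM Z-FR-AMC substrate added; reaction progress from fluorescence change between first and third reads (60 s).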
# Marburg entry inh: inhibitors of Marburg virus binding or cell entry. Marburg virus pseudotyped entry inhibition, cell reporter; control for the full effect not named in the record; about a third of the inactives were read at about 46 µM. Potency, µM (doses to about 37.8 µM), inactives show top-dose activity change, negative = inhibition, most hits filed as inhibitors. actives 1.8% (n = 300,000). AID 540276; active = well fitted inhibition curve with a large enough effect; inconclusive = small, poorly fitted or top-dose-only effect, or effect the other way; inactive = flat fitted curve, though single readings scatter; tested in HEK293 cells; about a fifth of its hits are not listed in these tables; further: on the % scale 0 is the no-effect control and ±100 the full control effect; luciferase read-out
# SARS PLpro yeast: blocks SARS-CoV papain-like protease in a yeast assay; S. cerevisiae expressing SARS-CoV PLpro, growth rescue; control for the full effect not named in the record; actives 0.19% (n = 330,000); AID 485353; Potency, µM (highest dose often 32.9 µM), for the others: top-dose activity, positive = growth rescue; further: 0% is about no effect; nearly all actives have a fitted effect of over 55% in size; growth read by luminescence after 48 h
# Starred values were filed as active, the others as inactive; ? = inconclusive; / = no result given; & = joins results of further samples; [ ] = another dose, or the depositor's remark. Unless noted, the call rests on the fitted dose curve; in most records, active means well fitted rising curve with a large enough effect; inconclusive means small, poorly fitted or top-dose-only effect; inactive means no such curve, though single readings can be large or run the other way. Potency means the concentration at half of the fitted maximal effect.
# Each structure is followed by: NS1 function inh, Cruzain inh Det, LASV entry inh, StopGo reporter, RE007 growth inh, Cruzain inh noDet, Marburg entry inh, SARS PLpro yeast
CCOCC(=O)Nc1ccc([N+](=O)[O-])cc1OC
 : -1.4%, /, 13.9%, 0.9%, 4.2%, /, 21.2%[46.1 µM], 0.7%
O=C(CN(CCCN1CCOCC1)C(=O)Cn1nnc(-c2ccc(F)cc2)n1)NC1CCCCC1
 : 5.6%, 2.8%, 7.3%, 7.5%, 13.7%, -2.6%, 2.7%, -2.8%
CN(C)C(=O)NC1C=CS(=O)(=O)C1 (stereo not given)
 : 6.5%, -3.1%, 23.3%, -23.0%, -8.2%, 16.1%, ?, 16.1%
CCOc1ccc(N(CC(=O)N/N=C/c2ccccn2)S(=O)(=O)c2ccc(Cl)cc2)cc1
 : -3.9%, /, /, -13.9%, -5.6%, /, /, -2.9%
CCOC(=O)c1cnc(SC)nc1Oc1cccc(NC(=O)c2ccc(C)cc2)c1
 : 12.7%, -2.6%, -5.5%, -18.6%, -1.9%, ?, ?, 8.1%
COc1cc(/C=N/n2c(-c3ccccc3)n[nH]c2=S)cc(OC)c1OC
 : -1.6%, /, ?, -28.6%, 21.1%, /, ?, 0.4%
COC(C(=O)Nc1ccccc1C(=O)N1CCOCC1)c1ccccc1 (stereo not given)
 : -2.4%, /, 0.7%, -18.4%, -0.6%, /, 28.4%, -1.8%
Cc1ccc(NC(=O)CN(C)C(=O)COc2ccccc2-c2ccccc2)cc1
 : /, /, -2.0%[46.1 µM], -17.2%, 4.4%, /, ?, -33.4%
O=C(CCCc1nc(-c2ccccc2)no1)NC1CCCCC1
 : -0.3%, /, 7.0%[46.1 µM], 6.9%, -2.5%, /, -29.8%[46.1 µM], -0.1%
CSc1nc2c(c(=O)[nH]1)C(c1ccc(Cl)cc1)CC(=O)N2 (stereo not given)
 : /, /, 5.2%, 73.2%[activator], -7.6%, /, 1.0%[46.1 µM], 1.3%
CCCC(O)(c1ccc(CC)cc1)C(CN1CCOCC1)c1ccccc1 (stereo not given)
 : -1.1%, /, ?, ?, 0.9%, /, ?, -1.8%
CCCn1cc(S(=O)(=O)c2ccc(OCC)cc2)c(=O)c2cc(C)ccc21
 : /, -3.0%, 4.1%[46.1 µM], 8.9%, /, -4.8%, 2.8%[46.1 µM], /
CCOC(=O)c1c(NC(=O)CNC2CCCCC2)sc(C)c1C
 : 5.6%, /, -19.8%[46.1 µM], -16.0%, 9.2%, /, ?, 1.2%
Cc1ccc(CCNC(=O)c2ccc(CS(=O)(=O)Cc3ccc(Cl)cc3)o2)cc1
 : /, -4.0%, -1.1%[46.1 µM], -28.4%, /, -14.5%, /, /
NC(=S)N=Nc1c(O)[nH]c2ccc(F)cc12
 : -2.1%, 14.1µM*, -3.5%, -3.9%, 1.6%, 5.01µM*, 1.5%, -9.3%
O=C(O)CCN1C(=O)c2ccccc2Sc2ncccc21
 : -3.3%, /, /, -4.8%, 9.6%, /, /, 0.7%
Fc1ccc(NCc2nc3ccccc3n2CCOc2ccccc2Cl)cc1
 : /, -5.6%, 2.8%[46.1 µM], 0.0%, /, ?, ?, /
CC1=C(C#N)CCC(=O)N1Cc1c(C)cc(C)cc1C
 : -5.1%, 6.5%, -8.4%, -11.2%, 32.5%, 13.0%, -19.8%, -17.7%
CC(C)[C@H](NC(=O)c1ccccc1F)C(=O)OCC(=O)NC1CC1
 : /, /, 3.5%, -15.7%, 0.6%, /, -0.2%, 3.0%
COC(=O)C1=C(C(=O)c2ccc(C)cc2)C(c2ccc(OC)c(OC)c2)n2nnnc2N1 (stereo not given)
 : -4.0%, 0.6%, 6.4%, -24.9%, -5.2%, 6.7%, 15.4%, 4.7%
O=C(CN1CCN(C(=O)c2ccco2)CC1)Nc1ccc(Cl)c(S(=O)(=O)N2CCOCC2)c1
 : /, /, -1.9%, -18.8%, -11.2%, /, 5.2%[46.1 µM], 2.2%
COc1ccc(C2c3[nH]c4ccccc4c3CCN2CCCn2cccn2)cc1C (stereo not given)
 : -2.5%, /, ?, -10.4%, -0.9%, /, ?, 0.4%
COc1cc(-c2nc3cnccn3c2Nc2ccc(C(C)C)cc2)ccc1O
 : 13.7%, -2.7%&-1.2%, ?, 39.8µM*, -5.1%, -23.8%&-15.9%, ?, 7.4%
Cn1c(CN2CCOCC2)nnc1SCC(=O)Nc1ccc2c(c1)OCCO2
 : 4.8%, 2.7%, -3.3%, -11.2%, 9.3%, 9.3%, 14.9%, -3.0%
CCN(Cc1ccccc1)C(=O)c1ccc(SC)cc1OC
 : -4.2%, /, /, 33.3%[activator], 3.9%, /, /, 0.5%
Cc1ccc(C(=O)NCc2n[nH]c(=S)n2-c2ccccc2)cc1[N+](=O)[O-]
 : /, /, 0.4%[46.1 µM], 3.3%, 5.1%, /, -0.6%[46.1 µM], 1.3%
COC(=O)Nc1ccc(S(=O)(=O)Nc2cnc3ccccc3n2)cc1
 : -0.4%, /, 0.3%, 57.3%[activator], -8.7%, /, ?, 0.4%
COc1ccc(C(=O)/C=C/c2ccc(F)cc2)c(OC(=O)c2ccc([N+](=O)[O-])cc2)c1
 : -1.0%, 0.4%, 1.6%, 2.6%, -20.2%, ?, 2.4%, 6.5%
CCn1c(CC(=O)Nc2ccccc2Cl)nnc1SCC(=O)NC1CCCC1
 : 7.7%, /, -14.5%[46.1 µM], -8.9%, 6.6%, /, -7.5%[46.1 µM], -0.6%
COc1ccc2oc(C(=O)Nc3ccc(C)cn3)c(C)c2c1
 : /, /, 1.0%, 15.6%, -11.4%, /, ?, -1.2%
CC(C(=O)Nc1ccccc1)N(C)CCOc1ccc(Br)cc1 (stereo not given)
 : /, /, -3.8%[46.1 µM], -20.5%, ?, /, ?, -14.9%
O=C(CSC1=NS(=O)(=O)c2cc(Cl)ccc2N1)NCCc1ccccc1
 : /, /, 15.4%, 22.9%, -15.6%, /, 0.4%, -2.1%
CC(=O)Nc1ccc(C)cc1-c1nc2ccccc2n(CC(=O)Nc2cc(Cl)ccc2C)c1=O
 : /, -4.0%, -3.4%[46.1 µM], -10.1%, /, 12.2%, 22.4%[46.1 µM], /
Cc1ccc(OCC(=O)O/N=C(\N)c2ccncc2)c(C)c1
 : -31.3%, /, ?, 39.2%[activator], -1.7%, /, 2.9%, -1.0%
OCCN(CCO)c1nc2ccccc2[nH]1
 : 0.9%, /, 6.2%, 0.3%, 3.0%, /, -1.3%, 0.2%
O=C(Cn1nc(-c2ccccc2)ccc1=O)NCC1COCCO1 (stereo not given)
 : -4.4%, -1.4%, 32.5%[14.3 µM], 18.4%, -0.6%, -10.4%, -6.6%, -14.9%
C[C@H](NS(=O)(=O)OCC(Cl)(Cl)Cl)C1CC1c1ccccc1 (stereo not given in full)
 : -73.1%, /, /, -4.2%, 0.4%, /, /, -5.2%
COc1ccc(C(=O)N(C)CCCC2CCCC2)cc1OC1CCN(C(C)=O)CC1
 : 2.3%, /, ?, -16.1%, 0.1%, /, -1.6%, -8.2%
CC(O)c1ccc(Oc2cnccn2)cc1 (stereo not given)
 : 3.6%, /, 5.8%[46.1 µM], -1.8%, 3.2%, /, -1.6%[46.1 µM], 0.8%
CCOc1ccc(NC(=O)CSc2nnnn2C2CCCC2)cc1
 : 11.0%, /, -7.1%[46.1 µM], 2.0%, 15.5%, /, 4.7%[46.1 µM], 2.5%
O=[N+]([O-])c1csc2ccccc12
 : /, /, -1.7%[46.1 µM], 4.3%, -2.8%, /, -1.2%[46.1 µM], /
O=C(CN1CCC(n2nnc3cc(C(F)(F)F)ccc32)CC1)N1CCc2ccccc21
 : -16.6%, -4.0%, 1.7%, /, -5.6%, -6.8%, -3.8%, -0.6%
O=S(=O)(c1ccc(N2CCCC2)cc1)C(F)(F)F
 : -1.1%, -0.7%, 18.5%[14.3 µM], 5.3%, 1.2%, -0.3%, -12.3%, -1.0%
CN(Cc1ccccc1)C(=S)Nc1ccc(OC(F)F)cc1
 : -0.8%, -4.2%, -17.3%, 28.6%, -15.6%, -2.1%, 22.6%, 11.1%
COCCCNC(NC(=O)c1ccc(Cl)cc1)C(Cl)(Cl)Cl (stereo not given)
 : -29.7%, -1.6%, -23.1%, -32.2%, 16.4%, 7.1%, -12.7%, 1.0%
O=C(Cc1coc(-c2ccc(F)cc2)n1)NCc1ccccc1
 : -5.4%, -2.2%, -0.5%, -5.9%, 14.3%, 3.1%, 19.8%, 0.0%
CCc1nn(CC(=O)NCCN2CCN(C)CC2)c(=O)c2cc3occc3n12
 : 2.1%, 3.3%, -7.3%, -18.4%, 11.5%, -7.7%, 16.0%, 0.0%
CCCN(CCC)CC(O)Cn1cc(/C=C/C(=O)c2ccc(C)cc2)c2ccccc21 (stereo not given)
 : /, -2.8%, ?, 0.0%, /, -12.5%, ?, /
O=C(NCCCN1CCCC1=O)Nc1cc(Cl)ccc1Cl
 : -0.3%, /, /, -23.4%, 0.9%, /, /, -2.3%
COc1ccc2c(=O)c(-c3ccc4c(c3)OCO4)coc2c1
 : -7.2%, 3.4%&4.5%, 3.2%, -19.2%, 2.4%, 6.5%&1.4%, ?, -22.0%
COc1ccc(/C=C(/C#N)c2nc(-c3ccc(Br)cc3)cs2)cc1
 : /, -0.6%, ?, -1.0%, /, 1.8%, /, /
Cc1cc(OCC(O)CN2C(C)CCCC2C)ccc1C(C)C (stereo not given)
 : 6.7%, /, ?, -16.5%, -8.4%, /, ?, -2.1%
CC(=O)c1ccc(N(CC(=O)NCCc2ccccc2)C(=O)c2csnn2)cc1
 : 19.6%, /, -7.6%, 16.7%, -10.6%, /, 6.4%[46.1 µM], 5.5%
O=C(NCc1ccccc1Cl)c1cccc(NC2=NC3CS(=O)(=O)CC3S2)c1 (stereo not given)
 : 2.7%, /, /, -9.6%, -4.3%, /, /, -6.8%
Clc1ccc(SCc2nc3ccccc3[nH]2)cc1
 : -72.8%, -14.3%, 3.9%, 10.1%, -21.6%, -0.6%, -20.6%, -27.9%
O=S(=O)(NCc1cccs1)NCc1ccccc1F
 : /, /, -1.7%[46.1 µM], 32.7%[activator], -5.5%, /, 1.1%[46.1 µM], -2.3%
